NS1 function inh = influenza NS1 inhibition | 270,000 compounds, 0.4% hits | S. cerevisiae slowed by influenza A NS1, growth recovery by OD600 | Potency, µM (top dose mostly 46.1 µM), inactives show at the highest dose activity, positive = more growth; active means well fitted rising curve with a large enough effect; inconclusive means small, poorly fitted or top-dose-only effect; inactive means no such curve, though single readings can be large or run the other way; further: nearly all actives have a fitted effect of over 50% in size
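Compounds were scored for reversing the slow growth caused by influenza A NS1 in S. cerevisiae, measured by optical density at 600 nm. Assay medium contained 2% galactose at pH 6.0; NS1-free yeast of the same strain were the positive control.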
RE007 growth inh = less growth of the S. pombe RE007 Vpr strain; S. pombe RE007 Vpr strain, BacTiter-Glo ATP luminescence, 24 h; control for the full effect not named in the record; Potency, µM (titrated, usually from 92.2 µM), for inactives: at the top dose activity change, negative = less growth; 360,000 compounds, 0.21% hits; AID 651644; active = well fitted falling curve with a large enough effect; inconclusive = small, poorly fitted or top-dose-only effect; inactive = no such curve, though single readings can be large or run the other way;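 further: on the % scale 0 is the no-effect control and ±100 the full control effect; nearly all actives have a fitted effect of over 50% in size; the assay follows cell death caused by Vpr and the record does not say whether a fall means rescue or toxicity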
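Fission yeast strain RE007, carrying one chromosomally integrated HIV-1 vpr copy, was seeded at OD 0.01 in PMG+AL medium with 23 nL pinned compound. After 24 h at 30 °C and 99% humidity, viability was read by BacTiter-Glo luminescence.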
Cruzain inh Det = cruzain (T. cruzi) inhibition with detergent; 200,000 compounds, 0.43% hits; purified cruzain, Z-FR-AMC fluorescence, 0.01% Triton; AID 1478; Potency, µM, without a hit: max response, negative = inhibition, usual class: inhibitors;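 further: plate controls were neutral wells for no effect and buffer without enzyme for full effect; nearly all actives have a fitted effect of over 40% in size; top concentration of the series not given in the record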
Target sequence (P25779 123-467 limits assumed): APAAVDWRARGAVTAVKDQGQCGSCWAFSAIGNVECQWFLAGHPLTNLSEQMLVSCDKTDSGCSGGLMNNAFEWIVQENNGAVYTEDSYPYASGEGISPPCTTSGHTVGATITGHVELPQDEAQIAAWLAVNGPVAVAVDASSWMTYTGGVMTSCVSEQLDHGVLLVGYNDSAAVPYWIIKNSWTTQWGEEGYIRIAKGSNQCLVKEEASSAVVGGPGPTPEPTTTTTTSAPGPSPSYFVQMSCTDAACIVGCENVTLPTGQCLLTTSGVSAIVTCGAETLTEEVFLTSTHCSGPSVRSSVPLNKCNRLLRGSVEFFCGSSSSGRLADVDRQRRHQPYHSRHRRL
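Cruzain (1.5 nM) preincubated 15 min at RT with compound in 100 mM sodium acetate pH 5.5, 5 mM DTT, 0.01% Triton X-100. Reaction started with 2 uM Z-FR-AMC; AMC fluorescence (ex 360/em 450 nm) change over 60 s gave rate.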
Lassa entry inh = blocks Lassa virus binding to or entry into cells; Lassa virus pseudotype entry inhibition, cell reporter; control for the full effect not named in the record; 300,000 compounds, 1.2% hits; Potency, µM (doses to about 37.9 µM), without a hit: at the highest dose activity change, negative = inhibition, most hits filed as inhibitors; active means well fitted inhibition curve with a large enough effect; inconclusive means small, poorly fitted or top-dose-only effect, or effect the other way; inactive means flat fitted curve, though single readings scatter; tested in HEK293 cells; further: on the % scale 0 is the no-effect control and ±100 the full control effect; nearly all actives have a fitted effect of over 50% in size; luciferase read-out
SARS PLpro yeast = inhibitors of SARS-CoV papain-like protease in yeast. Potency, µM (series often up to 32.9 µM), for inactives: top-dose activity, positive = growth rescue. S. cerevisiae expressing SARS-CoV PLpro, growth rescue; control for the full effect not named in the record. 330,000 compounds, 0.19% hits. AID 485353; active means well fitted rising curve with a large enough effect; inconclusive means small, poorly fitted or top-dose-only effect; inactive means no such curve, though single readings can be large or run the other way; further: 0% is about no effect; nearly all actives have a fitted effect of over 55% in size; growth read by luminescence after 48 h
StopGo reporter = FMDV 2A StopGo reporter, luciferase signal; human cells with a luciferase reporter of 2A StopGo recoding; control for the full effect not named in the record; Potency, µM (highest dose often 57.9 µM), for the others: at the top dose signal change, negative = less light; 410,000 compounds, 1.2% hits; active = well fitted falling curve with a large enough effect; inconclusive = small, poorly fitted or top-dose-only effect; inactive = no such curve, though single readings can be large or run the other way; tested in HEK293T cells; further: on the % scale 0 is the no-effect control and ±100 the full control effect; nearly all actives have a fitted effect of over 45% in size; luciferase light after 4 h
Cruzain noTriton = cruzain (T. cruzi) inhibition without detergent; P25779; Potency, µM, inactives show max response, negative = inhibition, actives largely listed as inhibitors; 200,000 compounds, 2.3% hits; purified cruzain, Z-FR-AMC fluorescence, no detergent;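 further: plate controls were enzyme without inhibitor for no effect and buffer without enzyme for full effect; nearly all actives have a fitted effect of over 40% in size; top concentration of the series not given in the record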
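Purified cruzain at 1.5 nM, pre-incubated 15 min with compound at room temperature in 100 mM sodium acetate pH 5.5, 5 mM DTT, 0.00005% Triton X-100. Reaction started with 2 uM Z-FR-AMC; AMC fluorescence increase over 60 s gives rate.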
MARV entry inh = inhibitors of Marburg virus binding or cell entry; Potency, µM (series often up to 37.8 µM), for the others: at the highest dose activity change, negative = inhibition, actives largely listed as inhibitors; 300,000 compounds, 1.8% hits; Marburg virus pseudotyped entry inhibition, cell reporter; control for the full effect not named in the record; about a third of the inactives were read at about 46 µM; active = well fitted inhibition curve with a large enough effect; inconclusive = small, poorly fitted or top-dose-only effect, or effect the other way; inactive = flat fitted curve, though single readings scatter; tested in HEK293 cells; about a fifth of its hits are not listed in these tables; further: on the % scale 0 is the no-effect control and ±100 the full control effect; luciferase read-out
* = called active by the depositor; ? = inconclusive; · = no result given; & = joins results of further samples; [ ] = dose if it differs, or a comment. Unless noted, the call rests on the fitted dose curve; in most records, active means well fitted curve in the direction sought with a large enough effect; inconclusive means small, poorly fitted or top-dose-only effect, or another doubt; inactive means no such curve, though single readings can be large; an effect the other way counts as inactive or inconclusive. Potency means the concentration at half of the fitted maximal effect.

entry	molecule	StopGo reporter	MARV entry inh	Cruzain inh Det	Cruzain noTriton	NS1 function inh	SARS PLpro yeast	Lassa entry inh	RE007 growth inh
1	Cc1ccc(C(c2cccc(Br)c2)c2c(C)[nH]c3ccccc23)s1 (stereo not drawn)	1%	-12%[46.1 µM]	-13%	-28%	·	·	17%[46.1 µM]	·
2	Cc1ccc(Cn2nnc3c(=O)n(Cc4cc(C)ccc4C)cnc32)cc1	·	0%	-2.5%	7%	3%	-22%	?	0%
3	COc1cccc(CNC(=O)Cn2c(=O)oc3cc(S(=O)(=O)N4CCCCCC4)ccc32)c1	-2%	·	-4.7%	-2%	·	·	-15%[46.1 µM]	·
4	COc1cccc(CN(C)C(=O)COc2cccc3c2OC(C)(C)C3)c1OC	0%	-8%	·	·	·	·	-5%	0%
5	COc1cccc(/C=C/C(=O)OCC(=O)Nc2ccc3[nH]c(=O)[nH]c3c2)c1OC	-14%	-9%	·	·	·	1%	-6%	-1%
6	Cc1cc(C(=O)N2CCN(S(=O)(=O)c3ccccc3)CC2)c(C)o1	0%	?	·	·	0%	1%	6%	-1%
7	Cc1ccc(S(=O)(=O)CCC(=O)N(CCN2CCOCC2)c2nc3ccccc3s2)cc1	39%[activator]	5%	·	·	·	1%	-3%	-11%
8	Cc1nnc(NC(=O)c2ccc(S(=O)(=O)C(F)F)cc2)s1	58%[activator]	·	·	·	0%	-1%	·	1%
9	CC(C)CN1C(=O)c2ccc(C(=O)NCc3ccc4c(c3)OCO4)cc2C1=O	-1%	24%	-14%	-4%	0%	2%	-13%	14%
10	CCCNC(=O)CSC1=N/C(=C/c2ccc(F)cc2)C(=O)N1CC	-20%	0%	-0.1%	1%	-8%	-30%	14%	-10%
11	O=C(CN1C(=O)NC2(CCCC2)C1=O)Nc1ccccc1N1CCCC1	-10%	·	·	·	2%	-3%	·	7%
12	O=C(O)CCc1nc2cccnc2n1Cc1ccccc1	-11%	14%	3.5%	0%	4%	-14%	0%	-12%
13	CC1(c2ccccc2)NC(=O)N(CC(=O)Nc2ccc(S(=O)(=O)Nc3ncccn3)cc2)C1=O (stereo not drawn)	-10%	2%	·	·	·	-4%	15%	-20%
14	CC1CCN(C(=O)CSc2nnc(Cc3ccccc3)o2)CC1	-7%	·	-4.9%	3%	2%	9%	·	-15%
15	CN(C)CCNC(=O)C(c1ccccc1)c1ccccc1	-13%	·	·	·	5%	1%	·	14%
16	N#Cc1c(-c2ccc(F)cc2)cc(-c2ccccc2)nc1SCC(=O)NCC(=O)O	-13%	·	·	·	6%	1%	·	17%
17	O=C(NCCN1CCNC1=O)C1CCC(=O)N(Cc2cccc(C(F)(F)F)c2)C1 (stereo not drawn)	-3%	·	·	·	-6%	2%	·	-12%
18	Cc1cc(Cl)c2oc(C(=O)N(CCO)Cc3ccccc3)c(C)c2c1	18%	-1%[46.1 µM]	·	·	-20%	5%	-26%[46.1 µM]	6%
19	CCOC(=O)Cn1nnc(-c2ccc([N+](=O)[O-])cc2)n1	11%	13%	·	·	-1%	-1%	3%	-9%
20	CC(C)(SC(=S)N1CCCCCC1)C(=O)O	0%	0%[46.1 µM]	·	·	-2%	-1%	2%	9%
21	Cc1c(/C=N/NC(=O)C(NC(=O)c2ccc3c(c2)OCO3)C(C)C)c2ccccc2n1C (stereo not drawn)	0%	?	-6.8%	-2%	?	-3%	?	-5%
22	CCCCC1CCC(C(=O)NCc2ccc3c(c2)OCO3)CC1 (stereo not drawn)	12%	8%	-1.6%	?	5%	1%	2%	2%
23	CC(C)Oc1ccc(C2CC(=O)N(c3cccc(/C=C/C(=O)O)c3)C2=O)cc1 (stereo not drawn)	15%	25%[46.1 µM]	·	·	7%	0%	6%[46.1 µM]	-10%
24	CC(Oc1ccccc1)C(=O)N=C1SC2CS(=O)(=O)CC2N1c1ccc(F)cc1 (stereo not drawn)	28%	·	·	·	9%	-2%	·	1%
25	CCOc1cc(NC(=S)NCCCN2CCOCC2)c(OCC)cc1NC(=O)c1ccc(C)cc1	-7%	-19%[46.1 µM]	·	·	1%	0%	16%[46.1 µM]	-6%
26	O=c1oc2ccccc2cc1-c1nc(-c2cccs2)no1	9%	·	0.7%	-2%	·	·	4%[46.1 µM]	·
27	O=C1OC(c2ccc(Cl)cc2)=N/C1=C\c1cccnc1	-14%	1%	-22%	-3%	-2%	-3%	9%	0%
28	COc1ccccc1NC(=O)CSc1nnc(C)n1CC1CCCO1 (stereo not drawn)	8%	10%	6.9%	1%	13%	-9%	?	0%
29	N#Cc1cnn(-c2ccccc2)c1NC(=O)CN1CCOCC1	7%	16%[46.1 µM]	·	·	1%	-1%	13%[46.1 µM]	5%
30	CN(Cc1nccs1)C(=O)C1CCC(=O)N(CCCc2ccccc2)C1 (stereo not drawn)	-2%	·	·	·	-1%	-18%	·	13%
31	COc1cccc(CNC(=O)Nc2cccs2)c1	49%[activator]	?	-5.3%	1%	-7%	-11%	9%	15%
32	Cc1ccc(OCCOC(=O)c2nc3nccc(C)n3n2)cc1	2%	7%[46.1 µM]	·	·	-2%	0%	18%	30%
33	Cc1cccc(C(=O)NCCN2CCN(c3ccccc3)CC2)c1	-25%	?	4.7%	0%	-1%	5%	-9%	11%
34	COC(C(=O)Nc1c(F)cccc1F)c1ccccc1 (stereo not drawn)	3%	3%[46.1 µM]	·	·	1%	0%	·	-13%
35	Cc1ccccc1N1CCN(C2CCCN(C(=O)c3csc(C(C)C)n3)C2)CC1 (stereo not drawn)	-11%	?	·	·	-13%	-3%	-4%	-4%
36	CNC(=O)C1CCN(S(=O)(=O)c2c(C)noc2/C=C/N(C)C)CC1	7%	·	·	·	5%	8%	·	18%
37	O=C(CSc1nc2ccccc2o1)NCc1ccco1	-4%	5%	-2.2%	-3%	-2%	-7%	-1%	0%
38	Cc1c(CCC(=O)NCCCn2ccnc2)c(=O)oc2c(C)c3oc4c(c3cc12)CCCC4	?	·	·	·	9%	-5%	·	-6%
39	COc1ccc(NS(=O)(=O)c2cccc(C(=O)OCC(=O)NC3CC3)c2)cc1	22%	·	·	·	1%	-2%	·	0%
40	O=C(Oc1ccccc1)n1c(=S)oc2ccccc21	-14%	?	-1.5%	-3%	16%	-25%	26%	1%
41	COc1ccc(CCn2c(O)c(C=NCCCN(C)C)c(=O)[nH]c2=O)cc1OC	-10%	11%	3.7%	-4%	-5%	0%	5%	2%
42	O=S(=O)(NC1CCCC1)c1ccc(S(=O)(=O)NC2CCCC2)cc1	·	?	-1.4%	-3%	-4%	7%	-30%	7%
43	CC(=O)NCCCc1c[nH]c2ccc(Cl)cc12	0%	0%	0.3%	-8%	5%	-3%	18%	7%
44	O=S(=O)(Nc1ccc2oc(-c3ccccc3)nc2c1)c1ccccc1	·	23%	-6.6%	-8%	-64%	-31%	-13%	0%
45	Cc1ccc(OCC(=O)N2CCC(C)CC2)c([N+](=O)[O-])n1	-8%	17%	·	·	·	-7%	-3%	1%
46	C=C1C(C(=O)N2CCN(C)CC2)C1C(=O)N1CCN(C)CC1 (stereo not drawn)	-15%	-1%	-0.2%	-6%	-5%	6%	13%	-7%
47	CSc1nc(C)cc(/C=C\c2ccccc2)c1C#N	13%	12%	-3.0%	-7%	16%	-6%	-13%	9%
48	O=C(Cn1ccc2cc(S(=O)(=O)N3CCCCCC3)ccc21)NCc1ccccc1Cl	3%	·	-4.8%	-22%	·	·	-22%[46.1 µM]	·
49	COc1ccc(-n2ccnc2CN2CCCC(CO)(Cc3cccc(OC)c3)C2)cc1 (stereo not drawn)	-27%	?	·	·	-6%	1%	-29%	-2%
50	COC(=O)C1CC(=O)N(Cc2ccccc2)C1 (stereo not drawn)	-19%	-2%	·	·	·	3%	7%	3%
51	Cn1cnc2c(=O)oc3ccc(S(=O)(=O)N4CCN(c5ccccc5F)CC4)cc3c21	-8%	·	-1.4%	11%	·	·	?	·
52	Cc1ccc(C(=O)Nc2ccc(Cl)cn2)cc1S(=O)(=O)N1CCOCC1	-12%	-1%&7%	0.9%	-17%	-18%	-1%	-9%	-13%
53	CC(C)CN(C(=O)COC(=O)CNC(=O)c1ccccc1F)C1CCS(=O)(=O)C1 (stereo not drawn)	-5%	2%[46.1 µM]	·	·	1%	-1%	29%[46.1 µM]	7%
54	O=C(NC1=NCCS1)c1sc2cc(Cl)cc(Cl)c2c1Cl	48%[activator]	?	-3.1%	?	-7%	-27%	-4%	10%
55	CCOC(=O)C1=C(O)/C(=C/c2cn(CC(=O)NCC3CCCO3)c3ccccc23)SC1=Nc1ccc(C)cc1 (stereo not drawn)	-29%	?	·	·	·	·	-25%	6%
56	COCCNC(=O)C1CC2Cn3c(nc4cc(Cl)c(Cl)cc43)C2N1C (stereo not drawn)	-2%	·	·	·	-2%	1%	·	0%
57	O=C(CSc1nnc(-c2cccnc2)n1CCN1CCCCC1)Nc1cccc(Cl)c1	-19%	?	-2.3%	10%	?	-7%	?	-11%
58	COc1cc(OC)cc(C(=O)NCC2CCCN(C(=O)c3csc(C(C)C)n3)C2)c1 (stereo not drawn)	-9%	7%	·	·	7%	-2%	18%	5%
59	CCOC(=O)Cc1csc(SCc2nc3ccccc3c(=O)[nH]2)n1	-17%	19%	0.2%	-1%	-13%	2%	-11%	34%
60	Cc1[nH]n(-c2ccccc2)c(=O)c1C1(C(F)(F)F)C(=O)N(c2ccccc2)C2=C1C(=O)CC(C)(C)C2 (stereo not drawn)	-2%	-1%	-6.2%	?	12%	4%	-5%	7%
61	O=C(O)CN1C(=O)/C(=C2\C(=O)N(Cc3ccccc3Cl)c3ccccc32)SC1=S	0%	9%[46.1 µM]	·	·	3%	3%	-4%[46.1 µM]	18%

The order is random. Share with any hit: about 4.8%.
